Compound activity: PubChem, Broad Institute
A1 apoptosis 2: A1 inhibitors via caspase activation, primary screen, cell-based, luminescence, HTS, two replicates; 24,000 tested, under 10 active; MEF A1-2A-BIM cells, caspase-Glo luminescence, 3 h; percent of clofoctol response, DMSO zero; caspase activation, % (test concentration not listed); in the data active = caspase activation above about 5.9%;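 note: wells of about 30 µL received 50 nL stock; the first replicate is given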
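Material: mouse embryonic fibroblasts co-expressing A1 and BIM (A1-2A-BIM), primed for A1 dependence / Quantity: 2500 cells/well / Buffer or medium: RPMI-1640 growth medium with 10% FBS / Doses: 50 nL compound per well, pinned / Schedule: 3 h compound exposure at 37 °C / Signal: Caspase-Glo luminescence (DEVD substrate) / Measure: Caspase-3/7 activation, seen as rise in luminescence signal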
The depositor's hits bear a star. This is a subset; rates above refer to the full screens.

Results for C[C@H](CO)N1C[C@H](C)[C@H](CN(C)Cc2ccc(C(=O)O)cc2)Oc2ccc(NC(=O)NC3CCCCC3)cc2CC1=O ?
A1 apoptosis 2: 0.1

Results for C[C@@H]1CN([C@@H](C)CO)C(=O)c2cccc(NS(C)(=O)=O)c2O[C@@H]1CN(C)Cc1ccccc1 ?
A1 apoptosis 2: -1.3

How did Cc1ccc(S(=O)(=O)Nc2ccc3c(c2)C(=O)N([C@@H](C)CO)C[C@H](C)[C@@H](CN(C)Cc2ccccc2)OCCCC[C@H](C)O3)cc1 do in these assays?
A1 apoptosis 2: 0.1

How did C[C@@H]1CN([C@@H](C)CO)C(=O)c2cccc(NS(=O)(=O)c3cccs3)c2O[C@H]1CN(C)C(=O)NC1CCCCC1 do in these assays?
A1 apoptosis 2: -0.7

Results for C[C@@H]1CCCCO[C@H](CN(C)C(=O)C2CCCCC2)[C@H](C)CN([C@@H](C)CO)C(=O)c2cc(NC(=O)c3ccccc3)ccc2O1 ?
A1 apoptosis 2: -0.2

How did C[C@H]1CN([C@@H](C)CO)C(=O)CCCn2nncc2CO[C@H]1CN(C)S(=O)(=O)c1ccccc1C#N do in these assays?
A1 apoptosis 2: -0.1

Results for C[C@@H]1CN([C@H](C)CO)C(=O)c2cc(NS(=O)(=O)c3cccs3)ccc2O[C@H]1CN(C)Cc1ccc(C(=O)O)cc1 ?
A1 apoptosis 2: 1.4

Results for COc1ccc(CN(C)C[C@@H]2OCCCC[C@H](C)Oc3ccc(NC(=O)NC(C)C)cc3C(=O)N([C@@H](C)CO)C[C@@H]2C)cc1 ?
A1 apoptosis 2: 0.3

Results for C[C@H]1CCCCO[C@H](CN(C)Cc2ccc3c(c2)OCO3)[C@@H](C)CN([C@@H](C)CO)C(=O)c2cc(NS(=O)(=O)c3ccc(F)cc3)ccc2O1 ?
A1 apoptosis 2: -0.6

Results for C[C@@H]1CN([C@H](C)CO)C(=O)c2cc(NC(=O)C3CCCCC3)ccc2O[C@@H]1CN(C)Cc1ccc(Cl)c(Cl)c1 ?
A1 apoptosis 2: -0.6

What do the screens show for `O=C(NO)c1cccc(C(=O)N/N=C/c2cc(Br)cc(Br)c2O)c1`?
A1 apoptosis 2: 0.0

What do the screens show for `C[C@@H]1CN([C@H](C)CO)C(=O)c2cccc(NC(=O)C3CC3)c2O[C@@H]1CN(C)C`?
A1 apoptosis 2: 1.5

Results for C[C@H](CO)N1C[C@H](C)[C@@H](CN(C)CC2CC2)OCCCC[C@H](C)Oc2ccc(NC(=O)Cc3ccccc3)cc2C1=O ?
A1 apoptosis 2: 0.1

How did COc1ccc(S(=O)(=O)Nc2ccc3c(c2)C(=O)N([C@H](C)CO)C[C@H](C)[C@@H](CN(C)Cc2ccc4c(c2)OCO4)O3)cc1 do in these assays?
A1 apoptosis 2: -0.3

What do the screens show for `C[C@@H]1CN([C@@H](C)CO)C(=O)c2cccc(NS(=O)(=O)c3ccc(Cl)cc3)c2O[C@H]1CN(C)Cc1ccncc1`?
A1 apoptosis 2: -0.3

What do the screens show for `CC(C)NC(=O)N(C)C[C@H]1Oc2ccc(NC(=O)C3CCCCC3)cc2C(=O)N([C@H](C)CO)C[C@H]1C`?
A1 apoptosis 2: 0.8

Results for C[C@@H]1CN([C@@H](C)CO)C(=O)Cc2cc(NC(=O)NC3CCCCC3)ccc2O[C@H]1CN(C)C(=O)Nc1ccc(F)cc1 ?
A1 apoptosis 2: 1.0

Results for Cc1noc(C)c1NC(=O)N(C)C[C@@H]1Oc2c(NS(=O)(=O)c3ccccc3)cccc2C(=O)N([C@H](C)CO)C[C@H]1C ?
A1 apoptosis 2: 0.8

Results for COc1ccc(NC(=O)N(C)C[C@@H]2OCCCC[C@H](C)Oc3ccc(NC(=O)CCCN(C)C)cc3C(=O)N([C@@H](C)CO)C[C@H]2C)cc1 ?
A1 apoptosis 2: 0.2

What do the screens show for `C[C@@H]1CN([C@H](C)CO)C(=O)CCCn2cc(nn2)CO[C@H]1CN(C)C(=O)Nc1ccc(C(F)(F)F)cc1`?
A1 apoptosis 2: -0.6

Overlap with the part before: two entries, then new ones.
Results for COc1ccc(NC(=O)N(C)C[C@@H]2OCCCC[C@H](C)Oc3ccc(NC(=O)CCCN(C)C)cc3C(=O)N([C@@H](C)CO)C[C@H]2C)cc1 ?
A1 apoptosis 2: 0.2

What do the screens show for `C[C@@H]1CN([C@H](C)CO)C(=O)CCCn2cc(nn2)CO[C@H]1CN(C)C(=O)Nc1ccc(C(F)(F)F)cc1`?
A1 apoptosis 2: -0.6

What do the screens show for `COc1ccc(COC[C@]23Oc4ccccc4[C@H]([C@H]2COC(=O)c2ccccc2)N(C(=O)CC(C)=O)C(=O)N3C)cc1`?
A1 apoptosis 2: -1.0

What do the screens show for `C[C@@H]1CCCCO[C@@H](CN(C)Cc2ccncc2)[C@@H](C)CN([C@H](C)CO)C(=O)c2cc(NS(=O)(=O)c3cn(C)cn3)ccc2O1`?
A1 apoptosis 2: -1.3

What do the screens show for `Cc1ccc(F)cc1S(=O)(=O)N[C@@H]1CCN(Cc2ccc3[nH]ccc3c2)C1`?
A1 apoptosis 2: 0.7

What do the screens show for `C[C@H]1CN([C@@H](C)CO)C(=O)Cc2cc(N(C)C)ccc2O[C@@H]1CN(C)C(=O)Nc1ccccc1`?
A1 apoptosis 2: 0.6

Results for O=C1O[C@@H](c2ccccc2)[C@@H](c2ccccc2)N2[C@@H](c3ccc(O)cc3)[C@]3(C(=O)Nc4ccccc43)[C@@H](C(=O)N3CCCCCCC3)[C@H]12 ?
A1 apoptosis 2: -0.5

What do the screens show for `COc1ccc(NC(=O)N(C)C[C@@H]2Oc3ccc(NC(=O)CCN4CCOCC4)cc3CC(=O)N([C@@H](C)CO)C[C@H]2C)cc1`?
A1 apoptosis 2: -0.2

How did C[C@H]1CN([C@@H](C)CO)C(=O)c2cccc(NC(=O)C3CCOCC3)c2O[C@@H]1CN(C)C(=O)Nc1ccc(C(F)(F)F)cc1 do in these assays?
A1 apoptosis 2: -0.2

Results for CC(C)NC(=O)N(C)C[C@H]1OCCCC[C@@H](C)Oc2ccc(N(C)C)cc2C(=O)N([C@H](C)CO)C[C@H]1C ?
A1 apoptosis 2: 0.5

What do the screens show for `C[C@@H]1CN([C@@H](C)CO)C(=O)c2cc(N(C)C)ccc2O[C@@H](C)CCCCO[C@H]1CN(C)C(=O)CCCN(C)C`?
A1 apoptosis 2: -1.0

Results for C[C@H](CO)N1C[C@H](C)[C@H](CN(C)Cc2ccncc2)Oc2ccc(NC(=O)Nc3ccccc3)cc2C1=O ?
A1 apoptosis 2: -0.1

How did CC(C)NC(=O)Nc1cccc2c1O[C@H](CN(C)C(=O)NC1CCCCC1)[C@H](C)CN([C@@H](C)CO)C2=O do in these assays?
A1 apoptosis 2: 0.7

What do the screens show for `Cc1ccc(S(=O)(=O)N(C)C[C@H]2Oc3c(NC(=O)C4CCOCC4)cccc3C(=O)N([C@@H](C)CO)C[C@H]2C)cc1`?
A1 apoptosis 2: -0.5

How did C[C@@H]1CN([C@H](C)CO)C(=O)c2cc(NC(=O)Nc3ccccc3)ccc2O[C@@H]1CN(C)Cc1ccc(Cl)c(Cl)c1 do in these assays?
A1 apoptosis 2: -1.4

Results for Cc1ccc(S(=O)(=O)Nc2cccc3c2O[C@H](CN(C)S(=O)(=O)c2ccc(F)cc2)[C@@H](C)CN([C@H](C)CO)C3=O)cc1 ?
A1 apoptosis 2: -1.7

What do the screens show for `COc1ccc(NC(=O)Nc2ccc3c(c2)C(=O)N([C@@H](C)CO)C[C@H](C)[C@@H](CN(C)Cc2ccccc2)O3)cc1`?
A1 apoptosis 2: -0.2

How did C[C@H]1CN([C@@H](C)CO)C(=O)c2cccc(N(C)C)c2O[C@H]1CN(C)C do in these assays?
A1 apoptosis 2: 1.8

What do the screens show for `Cc1noc(C)c1NC(=O)Nc1cccc2c1O[C@@H](CN(C)Cc1ccncc1)[C@@H](C)CN([C@H](C)CO)C2=O`?
A1 apoptosis 2: 1.4

What do the screens show for `Cc1ccc(S(=O)(=O)N(C)C[C@H]2Oc3ccc(NC(=O)Nc4cccc5ccccc45)cc3C(=O)N([C@@H](C)CO)C[C@@H]2C)cc1`?
A1 apoptosis 2: 0.3

Results for C[C@@H]1CN([C@H](C)CO)C(=O)c2cc(NC(=O)Cn3cnnn3)ccc2O[C@H]1CN(C)Cc1ccccc1 ?
A1 apoptosis 2: 0.1

How did C[C@H](CO)N1C[C@H](C)[C@H](CN(C)Cc2ccc(C(=O)Nc3ccccc3N)cc2)Oc2ccc(NS(=O)(=O)c3ccc(F)cc3)cc2C1=O do in these assays?
A1 apoptosis 2: -0.2

The closing 4 records of the part before lead into the next.
What do the screens show for `Cc1noc(C)c1NC(=O)Nc1cccc2c1O[C@@H](CN(C)Cc1ccncc1)[C@@H](C)CN([C@H](C)CO)C2=O`?
A1 apoptosis 2: 1.4

What do the screens show for `Cc1ccc(S(=O)(=O)N(C)C[C@H]2Oc3ccc(NC(=O)Nc4cccc5ccccc45)cc3C(=O)N([C@@H](C)CO)C[C@@H]2C)cc1`?
A1 apoptosis 2: 0.3

Results for C[C@@H]1CN([C@H](C)CO)C(=O)c2cc(NC(=O)Cn3cnnn3)ccc2O[C@H]1CN(C)Cc1ccccc1 ?
A1 apoptosis 2: 0.1

How did C[C@H](CO)N1C[C@H](C)[C@H](CN(C)Cc2ccc(C(=O)Nc3ccccc3N)cc2)Oc2ccc(NS(=O)(=O)c3ccc(F)cc3)cc2C1=O do in these assays?
A1 apoptosis 2: -0.2

How did C[C@@H]1CN([C@@H](C)CO)C(=O)Cc2cc(NS(=O)(=O)c3cn(C)cn3)ccc2O[C@H]1CN(C)Cc1ccc(C(F)(F)F)cc1 do in these assays?
A1 apoptosis 2: -0.6

How did C[C@H]1CN([C@@H](C)CO)C(=O)c2cc(NC(=O)C3CCCCC3)ccc2O[C@@H]1CN(C)S(=O)(=O)c1ccc(Cl)cc1 do in these assays?
A1 apoptosis 2: 0.7

Results for C[C@@H]1CN([C@H](C)CO)C(=O)c2cc(NC(=O)Nc3ccc4c(c3)OCO4)ccc2O[C@@H](C)CCCCO[C@@H]1CN(C)Cc1ccc(C(=O)O)cc1 ?
A1 apoptosis 2: -1.0

How did C[C@@H]1CCCCO[C@H](CN(C)C(=O)Cc2ccccc2)[C@@H](C)CN([C@H](C)CO)C(=O)c2cc(N(C)C)ccc2O1 do in these assays?
A1 apoptosis 2: -1.7

How did Cc1ccc(S(=O)(=O)Nc2ccc3c(c2)C(=O)N([C@@H](C)CO)C[C@H](C)[C@@H](CN(C)C(=O)CCCN(C)C)OCCCC[C@H](C)O3)cc1 do in these assays?
A1 apoptosis 2: -0.4

Results for C[C@H]1CN([C@@H](C)CO)C(=O)CCCn2nncc2CO[C@@H]1CN(C)C(=O)Nc1ccc2c(c1)OCO2 ?
A1 apoptosis 2: -1.2

What do the screens show for `C[C@@H]1CN([C@H](C)CO)C(=O)c2cc(NS(=O)(=O)c3ccccc3)ccc2O[C@@H](C)CCCCO[C@@H]1CN(C)CC1CC1`?
A1 apoptosis 2: 0.7

What do the screens show for `C[C@H](CO)N1C[C@H](C)[C@H](CN(C)C(=O)Nc2cccc3ccccc23)Oc2c(NC(=O)Nc3cccc4ccccc34)cccc2C1=O`?
A1 apoptosis 2: 0.5

How did C[C@@H]1CCCCO[C@H](CN(C)C(=O)NC2CCCCC2)[C@@H](C)CN([C@H](C)CO)C(=O)c2cc(NS(=O)(=O)c3ccc(F)cc3)ccc2O1 do in these assays?
A1 apoptosis 2: 0.1

What do the screens show for `COc1ccc(CN(C)C[C@@H]2Oc3c(NC(=O)c4ccncc4)cccc3C(=O)N([C@H](C)CO)C[C@H]2C)cc1`?
A1 apoptosis 2: 1.3

How did C[C@@H]1CN([C@H](C)CO)C(=O)c2cc(NS(=O)(=O)c3ccc(F)cc3)ccc2O[C@@H](C)CCCCO[C@H]1CN(C)C(=O)Nc1ccccc1 do in these assays?
A1 apoptosis 2: 2.0

Results for C[C@@H]1CCCCO[C@@H](CN(C)Cc2ccc(Cl)c(Cl)c2)[C@H](C)CN([C@H](C)CO)C(=O)c2cc(NC(=O)Cc3ccccc3)ccc2O1 ?
A1 apoptosis 2: -0.2

What do the screens show for `COc1ccc(NC(=O)N(C)C[C@@H]2Oc3ccc(NC(=O)C4CC4)cc3CC(=O)N([C@H](C)CO)C[C@@H]2C)cc1`?
A1 apoptosis 2: -0.1

What do the screens show for `C[C@@H]1CN([C@H](C)CO)C(=O)Cc2cc(NC(=O)CCN3CCOCC3)ccc2O[C@@H]1CN(C)C(=O)NC1CCCCC1`?
A1 apoptosis 2: -0.8

Results for C[C@@H]1CN([C@@H](C)CO)C(=O)c2cc(N(C)C)ccc2O[C@@H](C)CCCCO[C@@H]1CN(C)C(=O)CCCN(C)C ?
A1 apoptosis 2: -0.4

Results for Cc1ccc(S(=O)(=O)Nc2ccc3c(c2)C(=O)N([C@H](C)CO)C[C@@H](C)[C@H](CN(C)Cc2ccc(-c4ccccc4)cc2)O3)cc1 ?
A1 apoptosis 2: 0.5

Results for Cc1noc(C)c1NC(=O)N(C)C[C@H]1OCCCC[C@@H](C)Oc2ccc(N(C)C)cc2C(=O)N([C@H](C)CO)C[C@@H]1C ?
A1 apoptosis 2: -1.5

How did COc1ccc(S(=O)(=O)Nc2cccc3c2O[C@@H](CN(C)Cc2ccccc2)[C@H](C)CN([C@@H](C)CO)C3=O)cc1 do in these assays?
A1 apoptosis 2: 0.4

What do the screens show for `COc1ccc(CN(C)C[C@H]2OCCCC[C@H](C)Oc3ccc(N(C)C)cc3C(=O)N([C@@H](C)CO)C[C@@H]2C)cc1`?
A1 apoptosis 2: 0.3
